Ecoli rRNA inh = selective bacterial rRNA inhibition in E. coli; GFP signal change (wild-type ribosome), % (test concentration not listed); 350,000 compounds, 1.6% hits; E. coli WT GFP vs humanized-ribosome RFP mutants, fluorescence, 24 h; stronger effect = lower value; DMSO median 0, no signal -100; AID 720706;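 active means significant combined selectivity score with lowered wild-type GFP, culture density cut under 30%, mutant RFP and density less affected; inactive means any of these conditions unmet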; further: one replicate is shown; some compounds called inactive have numbers as strong as hits
UCH37 inh = human UCH37 deubiquitinating enzyme inhibition. inhibition, % (concentration not given with the values). 330,000 compounds, 0.33% hits. Q9Y5K5. purified proteasome/UCH37, Ub-AMC cleavage fluorescence. AID 588478;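 active means mean of two replicates above 20%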;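 further: 0% = compound-free wells with enzyme and 100% = wells lacking proteasome; stock transfer was 100 nL into about 20 µL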
Target sequence (Q9Y5K5 whole entry, looked up): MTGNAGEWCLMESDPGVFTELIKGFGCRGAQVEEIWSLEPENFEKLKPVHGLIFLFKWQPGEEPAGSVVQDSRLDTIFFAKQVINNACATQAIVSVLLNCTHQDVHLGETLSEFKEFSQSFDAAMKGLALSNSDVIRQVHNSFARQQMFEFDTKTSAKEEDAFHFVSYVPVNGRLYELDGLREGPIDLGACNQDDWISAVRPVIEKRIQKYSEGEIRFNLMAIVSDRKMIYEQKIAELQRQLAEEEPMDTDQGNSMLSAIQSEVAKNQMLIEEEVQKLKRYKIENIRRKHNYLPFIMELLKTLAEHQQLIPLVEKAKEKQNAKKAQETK
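Test system – human UCH37 enzyme supplied as purified proteasome complex · Incubation – 30 min preincubation with enzyme, 25 min cleavage at room temperature · Detection – AMC fluorescence from Ub-AMC cleavage, excitation 355 nm, emission 460 nm · Benchmarks – no-proteasome wells (full inhibition) and compound-free wells (no inhibition)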
Beta cell apopt = blocks beta cell apoptosis | 300,000 compounds, 0.8% hits | INS-1E cytokine-induced death, ATP luminescence, 48 h; percent of positive-control rescue, neutral wells zero | protection from apoptosis, % (concentration not given with the values) | AID 435005;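 active means all replicates at 75% or more, or half of them and the mean; inconclusive means half reach 75% but not the mean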;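 further: 0% = cytokine-treated negative control wells and 100% = positive control rescue; higher means more ATP so stronger rescue from cytokine killing; wells of about 40 µL received 100 nL stock; the first replicate is given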
E coli growth = E. coli growth inhibition; Escherichia coli growth, OD600, 23 h; stronger effect = lower value; OD600 absorbance (concentration not given with the values); 330,000 compounds, 0.21% hits; AID 1053175;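 active means OD600 absorbance below the run mean of sample wells minus 3.6 SD, in any replicate, cut at about 0.56 in these data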;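 further: stock transfer was 300 nL into about 60 µL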
Bfl-1 A1 inh = inhibitors of the anti-apoptotic protein A1, read as caspase activation | 330,000 compounds, 0.066% hits | MEF A1-2A-BIM cells, Caspase-Glo 3/7 luminescence, 3 h; percent of clofoctol response, vehicle zero | AID 2462 | caspase activation, % (no concentration beside the values);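 active means over half of replicate activation scores above 10%, or exactly half above 10 with the replicate mean above 10; inconclusive means replicate mean below 10 yet half the replicates above 10; inactive means over half of replicates below 10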;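 further: wells of about 30 µL received 50 nL stock; many hits fall short of the cut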
T cruzi inh = T. cruzi replication inhibition; T. cruzi beta-gal in NIH3T3, luminescence, 90 h; inhibition, % (no concentration beside the values); 300,000 compounds, 1.4% hits; AID 1885;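 active means mean inhibition across valid replicates above about 55%, limit read from the data; inconclusive means mean below that limit but half or more replicates reach it; inactive means mean below it, under half of replicates reach it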;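 further: signal also drops with host cell toxicity which is not excluded here; 0% = plate median of DMSO wells and 100% = zero luminescence signal; higher percent means less beta-gal luminescence so fewer parasites; stock transfer was 50 nL into about 50 µL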
MLL AF4-AF9 inh = MLL-AF4/AF9 protein interaction inhibition; AID 651704; 350,000 compounds, 0.47% hits; inhibition, % at 10 µM; AlphaScreen, biotin-AF4 peptide binding to FLAG-AF9; P42568;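 active means every replicate reaching a set inhibition limit, whatever the replicate mean, cut at about 25% in these data; inconclusive means mean inhibition reaches that limit but some replicates miss it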;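 further: 0% = plate neutral control median and 100% = total signal loss; the record names both 10 and 1 µM as test concentration; the first replicate is given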
Target sequence (P42568 whole entry, looked up): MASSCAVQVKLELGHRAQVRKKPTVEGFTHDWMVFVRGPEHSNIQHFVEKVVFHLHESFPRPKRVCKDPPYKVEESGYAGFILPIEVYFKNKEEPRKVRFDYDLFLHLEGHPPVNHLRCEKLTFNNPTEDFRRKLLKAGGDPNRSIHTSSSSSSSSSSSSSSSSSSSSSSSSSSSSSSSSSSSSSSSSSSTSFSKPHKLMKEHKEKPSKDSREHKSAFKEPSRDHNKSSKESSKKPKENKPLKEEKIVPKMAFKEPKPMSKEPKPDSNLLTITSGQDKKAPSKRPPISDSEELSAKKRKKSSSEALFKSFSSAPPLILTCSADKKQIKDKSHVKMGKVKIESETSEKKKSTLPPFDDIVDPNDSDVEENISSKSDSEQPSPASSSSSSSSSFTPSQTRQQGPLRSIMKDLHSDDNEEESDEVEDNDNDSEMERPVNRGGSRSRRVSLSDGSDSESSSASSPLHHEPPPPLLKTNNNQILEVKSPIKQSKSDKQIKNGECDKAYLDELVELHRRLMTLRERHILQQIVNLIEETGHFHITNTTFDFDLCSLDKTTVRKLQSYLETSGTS
FGF22 binding = binders of recombinant human FGF22 by thermal shift; Q9HCT0; SYPRO orange fluorescence; percent of sucrose octasulfate shift, DMSO zero; calls only at 9.99 µM; 340,000 compounds, 1.5% hits; AID 651658;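 active means melting point raised past a set limit in the mean and every replicate; inconclusive means no clear call; three in four hits are not shown here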
Target sequence (Q9HCT0 whole entry, looked up): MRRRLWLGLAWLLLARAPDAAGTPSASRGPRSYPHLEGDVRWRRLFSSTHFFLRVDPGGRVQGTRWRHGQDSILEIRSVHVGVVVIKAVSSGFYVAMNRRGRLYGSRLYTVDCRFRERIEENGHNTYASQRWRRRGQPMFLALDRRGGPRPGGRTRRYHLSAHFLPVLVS
Ecoli rRNA inh OD600 = second read-out of Ecoli rRNA inh, no call of its own (marks repeat the call); OD600 change, %; measured here: OD600 growth;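 optical density of the mix in the first replicate; 0 = DMSO median and -100 = no signal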
Ecoli rRNA inh RFP = further read-out of Ecoli rRNA inh, marked with its call; RFP signal change, %; measured here: RFP humanized mutant strains;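 first replicate; 0 = DMSO median and -100 = no signal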
Numbers without * were called inactive; i = inactive; ? = inconclusive; · = not tested or not shown; + = active, no number; & = joins results of further samples. This is a subset (hit frequency here may not be typical).

SMILES	Ecoli rRNA inh	Ecoli rRNA inh OD600	Ecoli rRNA inh RFP	UCH37 inh	Beta cell apopt	E coli growth	Bfl-1 A1 inh	T cruzi inh	MLL AF4-AF9 inh	FGF22 binding
COc1ccc(C)cc1S(=O)(=O)NCCC1=CCCCC1	-30.4	-46.0	-16.7	58.3*	8.4	0.703	-0.9	4.5	-3.4	i
O=C(CSc1nnc(NC2CC2)s1)NN1C(=O)NC2(CCCCC2)C1=O	4.0	10.1	-0.7	4.1	-0.2	0.661	-0.3	·	-1.8	i
O=C(CCc1nnc(Cc2cccc(C(F)(F)F)c2)o1)NCCc1ccccc1F	-1.4	2.7	-0.6	0.8	·	0.614	1.1	7.5	2.2	i
CCc1ccc(NC(=O)N[C@H](C(=O)O)C(C)CC)cc1 (some centres undefined)	6.9	6.2	1.8	5.9	-1.5	0.727	0.4	-6.2	-6.9	i
O=c1c(Cc2c(F)cccc2Cl)c(O)ccn1CCCN1CCOCC1	-2.3	1.5	-2.5	3.2	-1.4	0.651	0.3	-18.8	-0.2	i
O=C(NC1CCCCC1)c1cc([N+](=O)[O-])[nH]n1	·	·	·	5.0	5.7	·	0.1	-1.0	·	·
COc1cccc(C(=O)Nc2ccc(NC(=O)C3CC3)nc2)c1	3.2	1.6	-1.3	1.5	-0.2	0.625	-5.1	-4.1	10.5	i
COC(=O)/C=C/COc1ccccc1[N+](=O)[O-]	4.8	6.7	-1.5	6.2	-11.9	0.695	0.9	-7.7	-0.5	i
CCOC(=O)Cn1c(=O)c2c(nc(Br)n2CC(=O)OCC)n(C)c1=O	·	·	·	4.2	0.6	0.784	0.3	-4.2	·	·
Cc1ccccc1N(CC(=O)NCCc1ccccc1)C(=O)c1csnn1	·	·	·	1.1	-0.9	0.662	0.0	5.4	0.1	i
O=C(NN1C(=O)C2C3C=CC(C4CC34)C2C1=O)c1ccccc1Cl (centres undefined)	-0.1	1.1	-1.8	0.2	1.0	0.699	0.6	-15.6	1.0	i
Cc1ccc(NC2=NC(=S)N(CC#N)C23CCCCC3)cc1	·	·	·	-0.7	-9.5	0.683	-1.6	-26.1	·	·
O=C(Nn1cnnc1)c1ccc(OC(F)(F)C(F)C(F)(F)F)cc1 (centres undefined)	-3.2	4.6	0.4	2.0	-1.3	0.631	0.4	-6.7	1.1	i
CCOc1ccc(C2CC(c3ccc(CC)cc3)n3nc(N)nc3N2)cc1 (centres undefined)	-0.6	-2.4	3.2	-0.6	-4.2	0.706	-1.4	-3.4	-6.5	i
Cc1ccc(-c2nc(CS(=O)CC(=O)NCCCc3ccccc3)c(C)o2)cc1 (centres undefined)	-10.5	-16.8	-1.5	4.6	-5.5	0.702	0.2	19.1	-1.4	i
Cc1ccc(C(O)(C(=O)NNc2ccc3ccccc3n2)c2ccc(C)cc2)cc1	·	·	·	-6.1&-5.5	12.1	0.694&0.72	-1.0&-0.2	36.0&37.3	·	·
COc1ccc(NC(=O)CSc2nnc(Cc3ccc(C)cc3)c(=O)n2N)cc1	-0.9	5.3	4.2	4.9	·	0.689	-0.2	-8.1	-1.6	i
CC(=O)N1c2ccc(S(=O)(=O)NCCc3ccc(S(N)(=O)=O)cc3)cc2CC1C (centres undefined)	-0.3	1.5	0.7	6.8	-3.5	0.7	-1.9	-4.1	-11.4	i
CC(C)C(NS(=O)(=O)c1ccccc1)C(=O)N1CCCCCC1 (centres undefined)	-8.3	-9.1	-4.5	3.9	-10.9	0.66	0.8	-2.6	0.8	i
CCCNC(=O)NC(=O)c1cnccc1C(F)(F)F	7.0	16.5	1.2	2.5	-3.7	0.703	0.2	-12.7	-0.7	i
COc1cc(/C=N/N=C2/SCC(=O)N2c2ccc(O)cc2)ccc1O	8.4	8.3	-0.6	·	-8.0	·	0.5	10.8	0.3	·
O=C1OCCC1Sc1nnc(-c2ccccc2)o1 (centres undefined)	·	·	·	1.7	2.8	0.724	-0.4	-20.7	·	·
CCN(CC)Cc1cc(C(C)=O)ccc1O	·	·	·	6.1	1.2	0.725	-0.5	-14.4	·	·
COc1ccccc1C/C(N)=N/OC(=O)COc1cccc(C)c1	·	·	·	4.8	3.6	0.695	0.1	20.7	·	·
CCN1CCN(Cc2ccc(NC(=O)c3cc(NC(=O)N4CCNC4=O)cc(OC)c3)cc2C(F)(F)F)CC1	-6.5&-4.6	0.0&-3.1	0.1&0.5	0.4	-4.9	0.697	-0.5	44.3	11.1&-17.1	i
COc1ccc(Cc2nnc(-c3ccccc3)o2)cc1	-13.8	-3.3	4.6	2.5	-8.6	0.64	-1.0	-9.2	·	+
COc1ccc(NC2=CC(=O)N(C)C2=O)cc1	1.2	4.3	4.6	2.7	1.7	0.646	-0.2	-10.8	3.9	i
c1cncc(C(c2nnnn2C2CCCC2)N2CCCC2)c1 (centres undefined)	·	·	·	0.6	-0.5	0.675	-0.4	10.0	·	·
O=C(Nc1cc(C(F)(F)F)ccc1N1CCOCC1)c1ccc(F)cc1	·	·	·	-0.6	1.0	0.733	0.0	11.2	·	·
CCCN(CCC)C(=O)Cc1coc2ccc3ccccc3c12	·	·	·	2.6	-10.3	0.738	2.9	6.6	·	·
COc1cccc(CN2CCCC(C(=O)Nc3ccc(-c4cscn4)cc3)C2)c1 (centres undefined)	-15.9	-10.8	0.8	0.5	-2.2	0.709	1.3	8.0	3.4	i
O=C(c1cc(-c2ccco2)nc2ccccc12)N(Cc1nnc(-c2ccc(Cl)cc2)o1)C1CC1	-12.4	-13.8	5.6	-203.8	0.9	0.697	-0.4	31.0	2.0	i
CCOC(=O)C1CCCN(Cc2nc(CC3CC3)no2)C1 (centres undefined)	5.4	-3.5	-2.5	0.2	-8.5	0.665	0.4	-0.1	7.1	i
CCOC(=O)c1sc(N)c(C#N)c1CSc1nc2ccc(C)cc2[nH]1	·	·	·	-1.2	1.7	0.749	-0.6	7.9	·	·
O=C(CCCC(=O)N(c1cccc(F)c1)C(C(=O)NC1CCCC1)c1ccc(O)cc1)Nc1ccccn1 (centres undefined)	2.8	-4.1	12.2	5.0	-0.1	0.678	0.3	11.0	1.1	i
O=C(CCC(=O)N(CC(=O)NC1CCCCC1)c1ccc(F)cc1)Nc1nccs1	6.9	13.4	-2.2	-3.8	-5.5	0.64	0.3	1.1	0.0	i
CC1=Nn2c(nc(-c3ccccc3)c2-c2ccccc2)N(CC(N)=O)C(=O)C1	·	·	·	2.8	-9.7	0.722	0.6	9.4	·	·
CCC1CN(C(=O)NCc2ccc(C)cc2)c2ccccc2O1 (centres undefined)	-27.7	-28.8	-10.8	-1.0	-0.7	0.684	0.6	-6.2	-0.8	i
CCCCCCCC1CC(=O)C=C(C)C1C(=O)OCC (centres undefined)	2.2	6.1	-0.4	·	-6.3	·	-0.5	2.4	·	i
CCCn1c(N)c(C(=O)CSc2nnc(-c3cccnc3)n2-c2ccc(C)cc2C)c(=O)[nH]c1=O	7.8	12.3	2.0	0.8	-5.0	0.724	-0.1	-14.3	-1.1	i
COc1ccc(S(=O)(=O)N(CC(=O)NCc2ccco2)c2ccccc2OC)cc1	-2.3	2.3	5.8	4.2	-5.2	0.675	1.2	1.6	-0.9	i
CN(CC(=O)Nc1cccc(F)c1)C(=O)c1ccc(N2CCCC2)c([N+](=O)[O-])c1	-20.6	-36.9	7.8	6.7	10.1	0.675	-0.5	8.2	-3.5	i
O=C(CCCc1c[nH]c2ccccc12)Nc1ccc2ccccc2c1	·	·	·	1.0	-1.7	0.707	-0.2	2.7	·	·
Cc1ccc(C)c(S(=O)(=O)NCc2ccc3c(c2)OCO3)c1	-25.0	-29.9	-7.0	1.5	-3.0	0.655	?	2.5	-8.7	i
O=C(CN1C(=O)C2C3C=CC(C3)C2C1=O)Nc1nc2ccccc2[nH]1 (centres undefined)	·	·	·	1.8	-4.1	0.69	-0.4	-3.1	·	·
O=C(O)COc1ccc(/C=N/NC(=O)c2cccc3ccccc23)cc1	11.6	6.5	1.8	·	-3.4	·	-0.2	-8.5	1.3	i
CN(Cc1nc2ccccc2s1)C(=O)c1ccc(F)cc1	0.0	7.8	2.1	0.8	-6.2	0.696	1.2	5.9	0.0	i
Cc1ccc([N+](=O)[O-])cc1S(=O)(=O)Nc1ccc(-c2ccc(N3CCCC3)nn2)cc1	-9.2	3.2	0.5	4.4	4.1	0.704	0.5	25.1	-1.2	i
CCn1c(=O)cc(OCC(=O)N(C)c2ccccc2F)c2ccccc21	-5.7	-14.1	-0.6	1.8	3.9	0.655	-0.2	12.2	-1.6	i
COC(=O)c1ccc(Cc2ccc(C(=O)OC)o2)o1	7.8	9.3	0.4	3.6	·	0.671	0.4	0.8	·	·
Cc1ccc2c(c1)c1ncnc(N3CCc4ccccc4C3)c1n2C	·	·	·	-67.2	-2.2	0.773	0.1	26.1	·	·
CC1CCN(S(=O)(=O)N2CCC(C(=O)NCCc3ccccc3)CC2)CC1	4.4	2.9	1.1	5.2	-2.1	0.681	0.8	11.4	1.9	i
O=C(CCCN=C1NS(=O)(=O)c2ccccc21)OCC(=O)c1ccc(Br)cc1	0.5	11.1	4.6	1.6	-6.1	0.697	0.6	-7.3	-4.8	i
CCOc1cccc(N(C(=O)C2COc3ccccc3O2)C(C(=O)NC2CCCCC2)c2ccc(O)cc2)c1 (centres undefined)	·	·	·	-1.0	·	0.72	0.4	16.7	·	·
O=C(c1ccc2ncsc2c1)N1CCCC(C(F)(F)F)C1 (centres undefined)	0.0	-4.6	-1.4	1.6	-5.0	0.631	0.5	-10.9	2.3	i
COc1ccc(-c2nn(C)c(=O)c3ccccc23)cc1NC(=O)COc1ccccc1	·	·	·	-4.3	7.7	0.695	-0.7	30.4	·	·
CCOC(=O)c1[nH]cnc1C(=O)Nc1ccc(C)cc1	-3.8	1.6	-0.5	-1.3	-4.9	0.639	1.8	-1.0	-1.4	i
c1nnc2c3c4c(sc3ncn12)CCC4	·	·	·	4.5	-18.3	0.699	-1.0	-7.7	·	·
COc1ccc(C)cc1NC(=O)C(OC(=O)c1ccc([N+](=O)[O-])o1)c1ccccc1 (centres undefined)	-3.4	-4.3	-3.3	1.8	-6.0	0.709	0.2	0.5	4.4	i
Cc1ccc(OCCC(=O)OCC(=O)N2CC(=O)Nc3ccccc32)cc1	2.7	13.1	-0.8	2.3	-9.0	0.697	-0.4	·	-0.1	i
O=C(CN1CCc2ccccc2C1)Nc1ccc(Br)cc1	·	·	·	1.2	0.3	0.66	-0.2	-11.4	·	·
